From PubChem BioAssay
VDR inh – inhibitors of human vitamin D receptor; P11473; VDR-SRC2-3 peptide fluorescence polarization, 2 h; Potency, µM, without a hit: max response, negative = inhibition, hits mostly inhibitors; hit rate 0.93% among 400,000; AID 504847; active = well fitted inhibition curve with a large enough effect; inconclusive = small, poorly fitted or top-dose-only effect, or another doubt; inactive = no such curve, though single readings can be large or run the other way; note: series mostly up to about 120 µM
Target sequence (P11473 whole entry, looked up): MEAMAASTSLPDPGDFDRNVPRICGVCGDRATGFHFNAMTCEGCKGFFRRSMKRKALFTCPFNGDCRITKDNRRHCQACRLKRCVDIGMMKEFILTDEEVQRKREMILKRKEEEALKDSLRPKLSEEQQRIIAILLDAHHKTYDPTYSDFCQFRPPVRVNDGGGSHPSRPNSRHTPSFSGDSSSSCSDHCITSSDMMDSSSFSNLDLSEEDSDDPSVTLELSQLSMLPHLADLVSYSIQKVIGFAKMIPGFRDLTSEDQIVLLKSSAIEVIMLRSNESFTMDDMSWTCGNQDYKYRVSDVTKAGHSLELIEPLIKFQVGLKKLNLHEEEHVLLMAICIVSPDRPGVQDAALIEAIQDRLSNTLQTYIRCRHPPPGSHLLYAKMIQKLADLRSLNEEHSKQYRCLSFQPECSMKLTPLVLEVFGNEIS
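Inhibition of the VDR/SRC2-3 peptide interaction is quantified by fluorescence polarization. Compounds (23 nl, pintool) incubate with the reagents for 2 hours at ambient room temperature.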
* = called active by the depositor; u = inconclusive; & = joins results of further samples; [ ] = remark or other dose. % is set by controls: 0 for no effect and ±100 for the full control effect; potency is the fitted concentration of half-maximal effect. Only part of the results is shown; count on the stated rates, not on these rows.

Molecule	VDR inh
COc1ccccc1CN1CC(C(=O)NCc2cc(F)cc(C(F)(F)F)c2)CCC1=O (configuration not stated)	6%
Cc1oc(-c2cccc(Cl)c2)[n+]([O-])c1C	-25%
Cc1ccc(CCNC(=O)C2CCC(=O)N2C(C)C)cc1 (configuration not stated)	20%
Cc1ccc(C)c(OCc2cc(C(=O)N3CC[C@H](O)C3)no2)c1	-13%
CN1CCC(OC(=O)c2cccc(Cl)c2)CC1	-5%
Cc1cccc(C)c1Nc1c(-c2ccc(N3CCOCC3)cc2)nc2ncccn12	-7%&-5%
CN(CCc1cnn(C)c1)Cc1cn[nH]c1-c1ccc(-c2ccccc2)cc1	-13%
CCSc1nc2c(c(=O)[nH]1)C(c1cccnc1)C(C(=O)OC(C)C)=C(C)N2 (configuration not stated)	-5%
Cc1ccc(OCCCC(=O)Nc2ccc(N3CCOCC3)cc2)c(C)c1	4%
CCOc1ccc(CN(C)Cc2cc(=O)oc3cc(C)c(Cl)cc23)cc1	-8%

Another view of four compounds above.
> Cc1oc(-c2cccc(Cl)c2)[n+]([O-])c1C
  VDR inh = -25%

> Cc1ccc(CCNC(=O)C2CCC(=O)N2C(C)C)cc1 (configuration not stated)
  VDR inh = 20%

> Cc1ccc(C)c(OCc2cc(C(=O)N3CC[C@H](O)C3)no2)c1
  VDR inh = -13%

> CN1CCC(OC(=O)c2cccc(Cl)c2)CC1
  VDR inh = -5%

(continued)
Molecule	VDR inh
Cc1nn(C(=O)c2cccc([N+](=O)[O-])c2)c(C)c1Br	-11%
Cc1noc(C)c1NC(=O)Nc1cccc2c1O[C@H](CN(C)C(=O)NC1CCCCC1)[C@@H](C)CN([C@H](C)CO)C2=O	12%
NC(=O)CSc1nnc(NC(=O)c2ccc(S(=O)(=O)N3CCOCC3)cc2)s1	21%
CCOC(=O)c1[nH]c(C)c(/C(C)=N\O)c1C	-13%
COc1ccc(C(=O)COC(=O)CCC(=O)Nc2ccc(C(C)=O)cc2)cc1	-2%
CC(C)c1ccc(S(=O)(=O)N2CCC(C(=O)N3CCC3)CC2)cc1	-10%
NC(=O)N/N=C/c1c(F)c(F)c(F)c(F)c1F	25µM*
CCOC(=O)C(C)(C)Sc1nc2c(cnn2-c2ccc(Cl)cc2)c(=O)[nH]1	-10%
CC(=O)COc1coc(CN2CCN(c3ccc(F)cc3)CC2)cc1=O	-8%
Cc1ccc(C(=O)CSc2ccccc2C(=O)O)cc1	-16%
Cc1ccc(-n2ncc3c2CC(C)(C)CC3NC(=O)c2ccncc2)cc1 (configuration not stated)	1%
COc1ccc(/C=N/NC(=O)c2cc(C3CC3)[nH]n2)cc1OC	-15%
COC(=O)CC1C(=O)NCCN1C(=O)Nc1ccccc1 (configuration not stated)	-2%
Clc1cccc(CN2CCN(Cc3ccco3)CC2)c1	7%
COC(=O)c1ccc(NC(=O)N2CCOCC2)cc1	11%
Cc1nn(Cc2ccccc2Cl)c(C)c1NC(=O)c1cc(-c2ccc(F)cc2)on1	-8%
CC1CCCN(C/C(O)=C(\C#N)c2nc3ccccc3[nH]2)C1 (configuration not stated)	7%
O=S(=O)(Cc1ccccc1)Nc1cccc(F)c1	38%[activator]
Cc1ccc(N(CC(=O)NC2CCCCC2C)S(=O)(=O)c2c(C)noc2C)cc1 (configuration not stated)	7%
CCOC(=O)C1=C(C)NC(C)=C(C(=O)OCC)C1C(=O)OC1CCOC1=O (configuration not stated)	9%&-9%
CN(CC1CCCO1)S(=O)(=O)c1ccc(C(=O)Nc2ccccc2F)cc1 (configuration not stated)	-6%
Cn1c(=O)c2c(nc(CN3CCC(C(N)=O)CC3)n2Cc2ccccc2F)n(C)c1=O	2%
Cc1n[nH]c(C)c1CCC(=O)N/N=C/c1cccs1	-15%
C/C(CC(=O)Nc1ccccn1)=N\NC(=O)c1ccc(C)cc1	8%
CCOc1cc(N2CCOCC2)c(OCC)cc1NC(=O)CN1C(=O)C2CC=CCC2C1=O (configuration not stated)	0%
COc1ccc2[nH]cc(C(=O)CN3CCC(C)CC3)c2c1	22%
CC(C)OC(=O)c1ccc(N)cc1	-22%
Cc1cccc(NC(=S)NNC(=O)CCn2cc(C)cn2)c1	-2%
Cc1cc(C#N)c2ccccc2n1	-13%
CCC(=O)NC(=S)N1CCN(c2ccc([N+](=O)[O-])cc2Cl)CC1	2%
Cc1ccccc1NC(=O)CSc1nc(-c2ccco2)nc2cc(=O)[nH]n12	-7%
Cc1cc(NC(=O)c2ccc(-c3ccc(Cl)cc3)o2)cc(-c2nc3ncccc3o2)c1O	-16%
Fc1ccc(-c2noc3ncnc(NCc4ccc(Cl)cc4)c23)cc1	3%
COC(=O)c1c(NC(C)=O)sc(C)c1C	-4%
Cc1nn(C)c(C)c1NC(=O)Nc1ccc(Cl)c(Cl)c1	-15%
COc1ccc(NC(=O)c2cccc(NC3=NC4CS(=O)(=O)CC4S3)c2)cc1Cl (configuration not stated)	-10%
Cc1cc(C)c(C)c(S(=O)(=O)NCc2ccc(C(=O)N3CCCCC3)cc2)c1C	-11%
CCOc1ccccc1-n1c(=S)sc2c(=O)n(-c3ccc(F)cc3)c(SCC(=O)O)nc21	1%
C#CCOCCOCCOCCNc1nc(N2CCN(C(=O)CCCCCCCCCCNC(=O)Cn3cc(C[C@@H](C)O)nn3)CC2)nc(N2CCN(C(=O)CCCCCCCCCCNC(=O)[C@H](CCCN=C(N)N)n3cc(C[C@@H](C)CC)nn3)CC2)n1	80%[activator]
Cc1cc(C(=O)CSc2nnnn2-c2ccccc2)c(C)n1CC1CCCO1 (configuration not stated)	-5%
O=C(Nc1ccc2c(c1)OCCO2)c1oc2ccccc2c1NC(=O)C1CC1	-10%
COCCn1c(SCC(=O)N(C)c2ccccc2)nc2c([nH]c3ccccc32)c1=O	13%
CCOC(=O)N1CCC(Nc2c(NCCCN(CC)Cc3ccccc3)c(=O)c2=O)CC1	9%&-19%
Cc1cnc(C(=O)NC(C)CCc2ccccc2)cn1 (configuration not stated)	u
O=C(Nc1ccc2c(c1)OCCO2)N1CCN(c2ccccc2)CC1	11%
COC(=O)C1=C(NC(=O)c2ccccc2C)CCS1	-15%
Cn1c(=N)n(CC(=O)C(C)(C)C)c2ccccc21	-17%
COC(=O)c1cnn(-c2ccc(Cl)cc2)c1/C=N/NC(N)=S	-26%
Cc1cc(OCC(O)CN2CCc3ccccc3C2)cc(C(C)C)c1 (configuration not stated)	-2%
COC(=O)c1ccc(NC(=S)Nc2ccccc2)cc1	-6%

(more compounds)
Molecule	VDR inh
CC(C)CCNC(=O)c1ccc(Cn2c(=O)c3cccn3c3cccnc32)cc1	6%
CCc1nc(N2CCN(S(C)(=O)=O)CC2)c2c3c(sc2n1)CCCC3	7%
NS(=O)(=O)c1ccc2nc(NC(=O)CS(=O)(=O)c3ccccc3)sc2c1	-6%
COc1cc(/C=C2\SC(=O)N(c3cccc(Cl)c3)C2=O)cc([N+](=O)[O-])c1O	-8%
CCC(=O)Nc1ccc(C(=O)NNC(=O)c2cccs2)cc1	-4%
Cc1cc(C)cc(NC(=O)COC(=O)Cn2cnc3c2c(=O)n(C)c(=O)n3C)c1	5%
CCOC(=O)c1cc(-c2csc(COc3ccccc3)n2)on1	-12%
COCC(C)n1c(SCC(=O)NCCC2=CCCCC2)nc2ccccc2c1=O (configuration not stated)	-5%
COc1ccc(NS(=O)(=O)c2ccc(N)cc2)nn1	-2%
Cc1ccc(-n2nc3c(=O)n(C(C)C(=O)NC4CC4)nc(C)c3c2C)cc1 (configuration not stated)	12%
CCC(OC(=O)C(NC(=O)c1ccccc1)c1ccccc1)C(=O)Nc1cc(C)on1 (configuration not stated)	11%
Cc1ccc(NS(=O)(=O)c2c(C(=O)N3CCOCC3)c(C)n(C)c2C)cc1	-1%
CCC(=O)N(C)CCc1cc2c(c(OC)c1/C=N/NC(=O)c1ccncc1)OCO2	-17%
CCOc1cc(C(=O)Nc2ccon2)cc(OCC)c1OCC	-15%
COc1cc(F)c(C2=CC(=O)C[C@H](c3ccc(Cl)cc3)C2)cc1F	1%
CCOc1ccccc1C(=O)NCc1ccc2c(c1)CCN2C(C)=O	8%
ON1C(c2ccccc2C(F)(F)F)N(O)[C@H]2CCCC[C@H]21 (some centres not stated)	11%
O=C(Nc1cccc2ncccc12)c1ccc([N+](=O)[O-])o1	-8%
Cc1ccc(S(=O)(=O)N(CCc2ccccc2)CC(=O)Nc2ccccc2C)cc1	5%
Cc1ccc(-n2nc(C)c3c(C(=O)Nc4ccc(Br)c(C)c4)cc(C)nc32)cc1	3%
Cn1c(COc2ccccc2Br)nc2ccccc21	-14%
O=C(Nc1ccccc1)c1cccc(S(=O)(=O)NCc2ccco2)c1	3%
COc1ccc(C)cc1Nc1n[n+](-c2ccccc2)c(-c2ccc(OC)c(OC)c2OC)s1	-5%
COC(=O)CCn1nnc(-c2cccs2)n1	-2%
CCCCC1(C)NC(=O)N(CC(=O)Nc2ccc(S(=O)(=O)N3CCOCC3)cc2)C1=O (configuration not stated)	8%
Cc1cccc(NC(=O)c2cc(Cl)nc3ccccc23)n1	17%
O=C1C=C(c2ccc(Cl)cc2)OC2(CCCC2)O1	5%
CN(C)CCCN1C(=O)c2cccc3cccc(c23)C1=O	12%
Cc1coc2c1c(C)cc1oc(=O)c(CC(=O)NCCCCCC(=O)O)c(C)c12	-13%
CCOC(=O)c1cnn(-c2nc(C)cc(C)n2)c1N	-17%
Cc1ccc(NC(=O)CC2Nc3ccccc3NC2=O)cc1C (configuration not stated)	-10%
Cc1ccc(N(CC(=O)NCc2cccnc2)S(C)(=O)=O)cc1C	2%
CCCC(=O)Nc1ccc(C(=O)NNC(=O)c2ccco2)cc1	-11%
CC1CCCC(NC(=O)C2CCC(CNc3c(N4CCCC4)c(=O)c3=O)CC2)C1C (configuration not stated)	-16%
C#CCOCCOCCOCCNc1nc(N2CCN(C(=O)[C@H](CCC(=O)O)n3cc(C(N)[C@H](C)CC)nn3)CC2)nc(N2CCN(C(=O)[C@H](Cc3ccc(O)cc3)n3cc(C(N)[C@H](C)CC)nn3)CC2)n1 (some centres not stated)	-3%
Clc1ccc(NCn2cncn2)nc1	-2%
O=C(O)C(Cc1c[nH]c2ccccc12)NS(=O)(=O)c1ccc(Cl)c(C(F)(F)F)c1 (configuration not stated)	10%
O=C(NCc1ccccc1Cl)c1ccc2c(c1)N(Cc1ccccc1)C(=O)c1ccccc1S2	7%
O=C1C=C(c2ccccc2)CO1	2%
CCOC(=O)C1(Cc2cccc(Cl)c2)CCCN(C(=O)c2ccc(C)nc2)C1 (configuration not stated)	-6%

Random excerpt: two compounds from above.
Molecule	VDR inh
CCOc1ccc(CN(C)Cc2cc(=O)oc3cc(C)c(Cl)cc23)cc1	-8%
Cc1ccc(S(=O)(=O)N(CCc2ccccc2)CC(=O)Nc2ccccc2C)cc1	5%

Going on with the list:
Molecule	VDR inh
Cc1cccc(C(=O)NNC(=O)CCC(=O)Nc2cccc(Cl)c2C)c1	1%
Cc1ccc(/C=C/C(=O)N2CCC(c3nc4ccccc4o3)CC2)cc1	2%
COCc1ccc(CN2CCCC(CO)(Cc3cccc(OC)c3)C2)o1 (configuration not stated)	-8%
O=C(c1cnn2c(C(F)F)cc(-c3ccccc3)nc12)N1CCCc2ccccc21	3%
CN(Cc1ccccc1)C(=O)COc1ccc2ccccc2c1	-15%
CCCS(=O)(=O)c1nc(S(=O)(=O)c2ccc(C)cc2)c(N(C)Cc2ccccc2)s1	17%
O=C(Nc1sc2c(c1C(=O)NCc1ccco1)CCCC2)c1cc(=O)c2cc(Cl)ccc2o1	4%
CCOC(=O)c1cc(-c2ccc(OC)cc2)n(CCC(=O)NCCN2CCC(C)CC2)c1C	4%
COc1ccc(C(CNC(=O)COc2ccc(Cl)cc2C)N2CCCCC2)cc1 (configuration not stated)	-1%
Cc1nn(Cc2cccc(F)c2)c(C)c1NC(=O)c1c(Cl)cnn1C	-6%
CCCCN1CNC(=S)N(c2cc(C)ccc2C)C1	0%
COc1cc(/C=C/C(=O)O)cc(S(=O)(=O)Nc2cc(Cl)c(Cl)cc2Cl)c1OC	u
CCOC(=O)c1csc(NC(=O)CSc2nnnn2-c2ccc(OCC)cc2)n1	12%
COCc1cc(C)nc(SCC(=O)Nc2cccc(C)c2)c1C#N	-4%
Cn1nc(C(=O)OCC(=O)c2ccc(Cl)cc2)c2ccccc2c1=O	4%
CN(CC(=O)Nc1ccc(Cl)cc1)C(=O)c1ccc(N2CCCC2=O)cc1	4%
Nc1nnc(SCC(=O)OCC(=O)c2ccccc2)s1	8%
CCCCCN(C(=O)NC(=O)Nc1ccccc1C)S(C)(=O)=O	-2%
C[C@@H](C(=O)Nc1ccc2ccccc2c1)[C@H]1C[C@]1(C)[C@H](NC(=O)c1cccnc1)c1ccccc1	12%
CCC(C(=O)NCCCN1CCN(C)CC1)n1nc(C)n2c(cc3occc32)c1=O (configuration not stated)	-16%
CSc1ccc(CCNC(=O)c2ccc3c(c2)nc2n3CCC(C)C2)cc1 (configuration not stated)	11%
O=C(COC(=O)c1ccc[nH]c1=O)NCC1CCCO1 (configuration not stated)	-6%
O=C(CSc1nc(-c2ccccc2)[nH]c1-c1ccc(F)cc1)NC1CCCC1	-14%
